Cruzain inh noDet = blocks cruzain activity in detergent-free assay; Potency, µM, for inactives: max response, negative = inhibition, actives largely listed as inhibitors; purified cruzain, Z-FR-AMC fluorescence, no detergent; actives 2.3% (n = 200,000); P25779;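 further: plate controls were enzyme without inhibitor for no effect and buffer without enzyme for full effect; nearly all actives have a fitted effect of over 40% in size; top concentration of the series not given in the record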
Target sequence (P25779 123-467 limits assumed): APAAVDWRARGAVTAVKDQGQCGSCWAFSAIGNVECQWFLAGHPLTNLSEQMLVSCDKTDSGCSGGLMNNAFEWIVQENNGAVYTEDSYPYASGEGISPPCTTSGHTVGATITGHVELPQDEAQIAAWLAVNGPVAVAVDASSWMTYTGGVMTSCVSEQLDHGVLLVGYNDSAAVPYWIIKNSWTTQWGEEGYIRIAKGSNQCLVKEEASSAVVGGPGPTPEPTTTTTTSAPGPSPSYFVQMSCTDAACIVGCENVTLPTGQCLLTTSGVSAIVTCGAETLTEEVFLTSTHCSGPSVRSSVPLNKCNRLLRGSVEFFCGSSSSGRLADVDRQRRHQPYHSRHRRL
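Purified cruzain at 1.5 nM, pre-incubated 15 min with compound at room temperature in 100 mM sodium acetate pH 5.5, 5 mM DTT, 0.00005% Triton X-100. Reaction started with 2 uM Z-FR-AMC; AMC fluorescence increase over 60 s gives rate.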
SARS PLP yeast = SARS-CoV PLP inhibition in yeast. S. cerevisiae expressing SARS-CoV PLpro, growth rescue; control for the full effect not named in the record. Potency, µM (doses to about 32.9 µM), inactives show at the highest dose activity, positive = growth rescue. actives 0.19% (n = 330,000); active means well fitted rising curve with a large enough effect; inconclusive means small, poorly fitted or top-dose-only effect; inactive means no such curve, though single readings can be large or run the other way; further: 0% is about no effect; nearly all actives have a fitted effect of over 55% in size; growth read by luminescence after 48 h
Marburg entry inh = blocks Marburg virus binding to or entry into cells | Marburg virus pseudotyped entry inhibition, cell reporter; control for the full effect not named in the record; about a third of the inactives were read at about 46 µM | Potency, µM (top dose mostly 37.8 µM), for the others: at the top dose activity change, negative = inhibition, hits mostly inhibitors | actives 1.8% (n = 300,000); active = well fitted inhibition curve with a large enough effect; inconclusive = small, poorly fitted or top-dose-only effect, or effect the other way; inactive = flat fitted curve, though single readings scatter; tested in HEK293 cells; about a fifth of its hits are not listed in these tables; further: on the % scale 0 is the no-effect control and ±100 the full control effect; luciferase read-out
NS1 function inh = blocks influenza NS1 protein function; S. cerevisiae slowed by influenza A NS1, growth recovery by OD600; Potency, µM (top dose mostly 46.1 µM), inactives show at the top dose activity, positive = more growth; actives 0.4% (n = 270,000); active means well fitted rising curve with a large enough effect; inconclusive means small, poorly fitted or top-dose-only effect; inactive means no such curve, though single readings can be large or run the other way; further: nearly all actives have a fitted effect of over 50% in size
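Read-out: OD600 growth recovery of NS1-expressing budding yeast. Cells grown overnight at 30C in -URA glucose medium, washed, resuspended and diluted 1:100 in 2% galactose assay medium, pH 6.0. Same strain lacking NS1 served as positive control.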
Cruzain Triton = blocks cruzain activity in presence of Triton detergent. P25779. purified cruzain, Z-FR-AMC fluorescence, 0.01% Triton. Potency, µM, inactives show max response, negative = inhibition, most hits filed as inhibitors. actives 0.43% (n = 200,000). AID 1478;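 further: plate controls were neutral wells for no effect and buffer without enzyme for full effect; nearly all actives have a fitted effect of over 40% in size; top concentration of the series not given in the record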
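15 min RT preincubation of 1.5 nM cruzain with compound, then 2 uM Z-FR-AMC added; kinetic AMC fluorescence, 60 s delta. Triton X-100 0.01%, pH 5.5.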
Lassa entry inh = Lassa virus entry inhibition | actives 1.2% (n = 300,000) | Lassa virus pseudotype entry inhibition, cell reporter; control for the full effect not named in the record | Potency, µM (series often up to 37.9 µM), for inactives: top-dose activity change, negative = inhibition, actives largely listed as inhibitors; active means well fitted inhibition curve with a large enough effect; inconclusive means small, poorly fitted or top-dose-only effect, or effect the other way; inactive means flat fitted curve, though single readings scatter; tested in HEK293 cells; further: on the % scale 0 is the no-effect control and ±100 the full control effect; nearly all actives have a fitted effect of over 50% in size; luciferase read-out
RE007 growth inh = less growth of the S. pombe RE007 Vpr strain; S. pombe RE007 Vpr strain, BacTiter-Glo ATP luminescence, 24 h; control for the full effect not named in the record; actives 0.21% (n = 360,000); Potency, µM (top dose mostly 92.2 µM), for the others: at the highest dose activity change, negative = less growth; active = well fitted falling curve with a large enough effect; inconclusive = small, poorly fitted or top-dose-only effect; inactive = no such curve, though single readings can be large or run the other way;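 further: on the % scale 0 is the no-effect control and ±100 the full control effect; nearly all actives have a fitted effect of over 50% in size; the assay follows cell death caused by Vpr and the record does not say whether a fall means rescue or toxicity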
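Fission yeast strain RE007, carrying one chromosomally integrated HIV-1 vpr copy, was seeded at OD 0.01 in PMG+AL medium with 23 nL pinned compound. After 24 h at 30 °C and 99% humidity, viability was read by BacTiter-Glo luminescence.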
StopGo reporter = FMDV 2A StopGo reporter, luciferase signal; human cells with a luciferase reporter of 2A StopGo recoding; control for the full effect not named in the record; AID 1159524; actives 1.2% (n = 410,000); Potency, µM (highest dose often 57.9 µM), for inactives: at the highest dose signal change, negative = less light; active = well fitted falling curve with a large enough effect; inconclusive = small, poorly fitted or top-dose-only effect; inactive = no such curve, though single readings can be large or run the other way; tested in HEK293T cells; further: on the % scale 0 is the no-effect control and ±100 the full control effect; nearly all actives have a fitted effect of over 45% in size; luciferase light after 4 h
* hit, by the source's call; ? = inconclusive; . = not tested or not shown; & = joins results of further samples; [ ] = remark or other dose. Unless noted, the call rests on the fitted dose curve; in most records, active means well fitted curve in the direction sought with a large enough effect; inconclusive means small, poorly fitted or top-dose-only effect, or another doubt; inactive means no such curve, though single readings can be large; an effect the other way counts as inactive or inconclusive. Potency means the concentration at half of the fitted maximal effect. This is a random part of the collection (roughly 4.7% active in at least one column).

SMILES | Cruzain inh noDet | SARS PLP yeast | Marburg entry inh | NS1 function inh | Cruzain Triton | Lassa entry inh | RE007 growth inh | StopGo reporter
CC1=C(C(=O)Nc2ccccc2C)C(c2ccc[nH]2)n2ncnc2N1 (stereo unspecified) | 4% | . | . | . | -5.3% | 6%[46.1 µM] | . | 0%
Cc1ccc(NC(=O)NNC(=O)C2CCN(Cc3ccc(F)cc3Cl)CC2)cc1 | . | 0% | . | 4% | . | . | -1% | -8%
CN(C/N=C(\N)N[N+](=O)[O-])S(=O)(=O)c1ccccc1 | . | 1% | ? | . | . | -1% | 15% | 2%
Cc1nn(CCCC(=O)NCCc2ccccc2)c(C)c1[N+](=O)[O-] | . | 0% | 9%[46.1 µM] | . | . | 27%[46.1 µM] | -16% | 0%
COc1ccc(-c2nc3ncccn3c2Nc2ccccc2)cc1 | . | -1% | 23%[46.1 µM] | . | . | -2% | 12% | 3%
Cc1cccc(CN2CCN(C(=O)CCc3nnc(C4CCCCC4)o3)CC2)c1 | . | 0% | . | 1% | . | . | -8% | 37%[activator]
COc1cc(OC)cc(C(=O)Oc2c(CN3CCOCC3)cc(Cl)c3cccnc23)c1 | . | 3% | -16%[46.1 µM] | -3% | . | ? | -8% | 10%
O=C(Nc1ccc(S(=O)(=O)N2CCCC2)cc1)c1ccc(CN2CCc3ccccc3C2)cc1 | 15% | -1% | ? | -14% | 10.0% | ? | -15% | ?
CCn1c(=O)c2c3c(sc2n2cnnc12)CCC3 | 0% | -9% | ? | -2% | 3.0% | 0% | 2% | -4%
CCCCN(CCCNC(=O)c1cc(Nc2ccc(OC)cc2OC)nc2ccccc12)Cc1ccccc1 | -10% | . | ? | . | -7.7% | ? | . | -15%
Nc1nc(N)c(S(=O)(=O)c2ccccc2)c(Nc2ccc(F)cc2)n1 | -14% | . | -27%[46.1 µM] | . | -10% | -3%[46.1 µM] | . | -4%
COc1ccc(CCNC(=O)CN2CCN(Cc3ccc(F)cc3)C2=O)cc1OC | 9% | 1% | 1% | 3% | 3.5% | . | -6% | -2%
COc1ccccc1NS(=O)(=O)c1cc(NC(=O)c2ccc(Cl)nc2)ccc1Cl | ? | -3% | 8.9µM* | 16% | -6.0% | ? | -16% | 10µM*
CC(C)C(NS(=O)(=O)c1ccc2c(c1)oc(=O)n2C)C(=O)N1CCN(c2cccc(Cl)c2)CC1 (stereo unspecified) | -12% | . | -18%[46.1 µM] | . | 5.8% | ? | . | 0%
C=CCC(=O)NC1CC(C)(C)Cc2c1cnn2-c1ccccc1C (stereo unspecified) | . | 1% | -8% | -9% | . | ? | 2% | -4%
Cc1[nH]c(C)c(S(=O)(=O)NCc2ccc(OC(C)C)cc2)c1C(=O)N1CCCC1 | . | 0% | . | 1% | . | . | -4% | 9%
Cc1ccc(CCNC(=O)c2ccc(CS(=O)(=O)Cc3ccccc3F)o2)cc1 | -4%&5% | 1% | ? | -8% | -2.2%&-7.2% | ? | -2% | ?
Cc1ccccc1NS(=O)(=O)c1nnc(NC(=O)c2ccc(Cl)cc2)s1 | 3% | 4% | . | -5% | -1.2% | ? | 3% | 15%&14%
Cc1noc(C)c1COc1ccccc1C(=O)NCc1ccccc1Cl | . | -3% | ? | . | . | ? | -10% | 7%
Cc1ccc(S(=O)(=O)NCC(=O)OCc2ccccc2Br)cc1 | . | -2% | 2%[46.1 µM] | -61% | . | 14%[46.1 µM] | -6% | -2%
CCOC(=O)c1c(NC(=S)Nc2ccccc2C)sc2c1CCC2 | -26% | -4% | . | 9% | -8.6% | . | 2% | 0%
CN(c1ccccc1)S(=O)(=O)c1cccc(NC(=O)CSc2nncn2C)c1 | -2% | 7% | -2% | -4% | 2.2% | 2% | 2% | 2%
Cc1cccc(C)c1NC(=O)C1(NC(=O)C2CCC(=O)N2)CCCCC1 (stereo unspecified) | 10% | 5% | 16% | 5% | 2.6% | 16% | 6% | -17%
N#Cc1cccc(NC(=O)CSc2ccc3c4c(cccc24)C(=O)c2ccccc2-3)c1 | 10µM* | 16% | ? | 8% | 1.7% | ? | 3% | -17%
CCN(CC)c1nc2cc(OC)ccc2cc1C#N | 4% | -2% | 3% | -33% | 0.1% | . | . | ?
Cc1ccc(-n2cnc(=O)c3cccnc32)cc1 | -4% | -3% | -2% | 10% | 2.4% | 15% | 14% | 14%
CC(NC(=O)COC(=O)[C@@H]1CCCN1S(=O)(=O)c1ccccc1F)C12CC3CC(CC(C3)C1)C2 (stereo partly specified) | ? | -10% | 0% | -34% | -5.2% | 2% | 23% | -25%
Cc1cc2c(cc1S(=O)(=O)N1CCC(C(N)=O)CC1)OCC(=O)N2 | 2% | . | . | . | 4.8% | 7%[46.1 µM] | . | 20%
CC(=O)OC1CCC2(C)C(CCC3C2CC(=O)C2(C)C3CC(C3CCCC3=O)C2C(C)=O)C1 (stereo unspecified) | . | . | -1%[46.1 µM] | . | . | -17%[46.1 µM] | 3% | -10%
O=C(NCC1CCCO1)c1ccc(NS(=O)(=O)c2ccccc2)cc1 (stereo unspecified) | . | 0% | 5%[46.1 µM] | 9% | . | -8%[46.1 µM] | 9% | -2%

Exported as labelled records: 2 of the compounds above
Cc1[nH]c(C)c(S(=O)(=O)NCc2ccc(OC(C)C)cc2)c1C(=O)N1CCCC1
  Cruzain inh noDet: .	SARS PLP yeast: 0%	Marburg entry inh: .	NS1 function inh: 1%	Cruzain Triton: .	Lassa entry inh: .	RE007 growth inh: -4%	StopGo reporter: 9%
Cc1cc2c(cc1S(=O)(=O)N1CCC(C(N)=O)CC1)OCC(=O)N2
  Cruzain inh noDet: 2%	SARS PLP yeast: .	Marburg entry inh: .	NS1 function inh: .	Cruzain Triton: 4.8%	Lassa entry inh: 7%[46.1 µM]	RE007 growth inh: .	StopGo reporter: 20%

Other records.
SMILES | Cruzain inh noDet | SARS PLP yeast | Marburg entry inh | NS1 function inh | Cruzain Triton | Lassa entry inh | RE007 growth inh | StopGo reporter
Cc1ccc(NC(=O)c2ccc(N(Cc3ccccc3)S(C)(=O)=O)cc2)cc1 | 16% | . | . | . | -1.4% | ? | . | 5%
Cc1ccc(N(Cc2ccc(C(=O)Nc3c(C)n(C)n(-c4ccccc4)c3=O)cc2)S(C)(=O)=O)cc1C | . | 1% | 13%[46.1 µM] | . | . | -20%[46.1 µM] | -2% | -6%
O=C(CC1NCCNC1=O)Nc1ccccc1 (stereo unspecified) | . | 0% | 1%[46.1 µM] | 0% | . | . | 11% | 2%
COc1cc(OC)cc(C2=NC3(CCC(C)CC3)NC2=S)c1 (stereo unspecified) | . | 9% | ? | . | . | -27%[46.1 µM] | 8% | -7%
C=CCOc1ccc2ccccc2c1CNn1cn[nH]c1=S | . | -2% | . | 16% | . | . | 2% | -10%
Cc1ccc(CN2CCN(Cc3cnc(C)[nH]3)CC2CCO)cc1 (stereo unspecified) | . | 0% | -28%[46.1 µM] | -3% | . | 1%[46.1 µM] | -15% | -1%
CCCCCn1c(CCNC(=O)c2cccc(C)c2)nc2ccccc21 | 6% | . | ? | . | 13µM* | -12%[46.1 µM] | . | -18%
Nc1ccc(-c2sc(N)nc2-c2ccccc2)cc1 | -11% | 17% | ? | 16% | 0.0% | -11% | 6% | -19%
COc1ccc(CCNC(=O)/C(=C/c2cccnc2)NC(=O)c2ccccc2)cc1 | -1% | -11% | ? | 17% | -3.8% | ? | -11% | 1%
Cc1nc(Nc2ccc3c(c2)OCCO3)c2oc3ccccc3c2n1 | -3% | -21% | ? | -129% | -11% | ? | -5% | ?
Cc1cc(C)nc(N/N=C/c2cc(C)n(CC(F)(F)F)c2C)n1 | . | 2% | -25% | 1% | . | ? | -9% | 17%
CNC(C)c1ccc(S(N)(=O)=O)cc1 (stereo unspecified) | . | 1% | 3%[46.1 µM] | 1% | . | -2%[46.1 µM] | 7% | -2%
CCOC(=O)COC(=O)c1ccc(O)cc1 | -2% | -7% | ? | -12% | -2.3% | 29% | 0% | 42%[activator]
O=c1[nH]c2ccc(NS(=O)(=O)c3ccc([N+](=O)[O-])cc3)cc2[nH]1 | . | 6% | ? | . | . | -2% | 5% | -1%
Cc1ccc(S(=O)(=O)N(CC(=O)NCCc2ccc(Cl)cc2)c2ccccc2C)cc1 | 16% | . | ? | . | -5.8% | ? | . | -20%

Brought forward from above: two compounds; new compounds follow.
SMILES | Cruzain inh noDet | SARS PLP yeast | Marburg entry inh | NS1 function inh | Cruzain Triton | Lassa entry inh | RE007 growth inh | StopGo reporter
O=c1[nH]c2ccc(NS(=O)(=O)c3ccc([N+](=O)[O-])cc3)cc2[nH]1 | . | 6% | ? | . | . | -2% | 5% | -1%
Cc1ccc(S(=O)(=O)N(CC(=O)NCCc2ccc(Cl)cc2)c2ccccc2C)cc1 | 16% | . | ? | . | -5.8% | ? | . | -20%
CCOc1cc(CNC(=O)c2cc(-c3ccccc3)n[nH]2)cc(OCC)c1OCC | 15% | . | . | . | -7.4% | 2%[46.1 µM] | . | 0%
CCC(c1nnnn1C(C)(C)C)N1CCN(C2CCCC2)CC1 (stereo unspecified) | 4% | 1% | -2% | -9% | 1.4% | 20% | 11% | -21%
Cc1ccc2c(c1)CCCN2C(=O)NC1CCCCC1 | . | -1% | 10% | -6% | . | -10% | -5% | 3%
Cc1ccc2c(CC(=O)Nc3cc(C(F)(F)F)ccc3Cl)coc2c1C | -6% | . | -15%[46.1 µM] | . | -1.2% | -18%[46.1 µM] | . | -14%
O=C(COC(=O)/C=C/c1ccc(S(=O)(=O)N2CCOCC2)cc1)Nc1ccc(F)c(F)c1F | . | -2% | -5% | . | . | -16% | -5% | -24%
C=C1CCC[C@]2(C)C[C@H]3OC(=O)C(CNCCN(CC)CC)[C@H]3CC12 (stereo partly specified) | . | 0% | ? | 18% | . | ? | -14% | -14%
Cc1nn(CC(C)C)c2sc(C(=O)NC3CC(C)(C)NC(C)(C)C3)cc12 | . | -1% | ? | 3% | . | -19%[46.1 µM] | 11% | -8%
Cc1ccc(CNc2nc3ccc(C)cc3n3nnnc23)cc1 | -7% | . | -10%[46.1 µM] | . | -1.7% | -15%[46.1 µM] | . | -13%
